Screens: PubChem, National Center for Advancing Translational Sciences (NCATS)
Menin MLL FP FL: displaces fluorescein MLL peptide from human menin; Fluorescence polarization, fluorescein-MLL peptide displacement from menin; FP activity change, % at 61.4 µM; 290,000 tested, under 10 active; AID 1766; inconclusive = falling polarisation curve, or a change in total fluorescence; inactive = total fluorescence flat and polarisation flat or rising; no compound was filed as active; the % refers to the polarisation; negative = inhibition;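 note: % of control where 0% means no effect; inhibitors lower the polarisation; unlabelled MLL peptide was the positive control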
Numbers without * were called inactive; ? = inconclusive; & = joins results of further samples; [ ] = another dose, or the depositor's remark. Only part of the results is shown; count on the stated rates, not on these rows.

> COc1ccc(O[C@H]2C=C[C@@H](c3ccccc3)O[C@H]2COC(=O)CC/C(C)=N\O[C@@H](C)CN2CCCCc3nc(C)c(C)cc32)cc1
  Menin MLL FP FL = -2.8[11.7 µM]

> O=c1ccc2ccc(Oc3ccc([N+](=O)[O-])cc3[N+](=O)[O-])cc2o1
  Menin MLL FP FL = 2.0

> COc1cccc(Cn2c(=O)c(-c3cccc(F)c3)nc3cncnc32)c1
  Menin MLL FP FL = 8.2

> N#CCCS(=O)(=O)c1ccccc1
  Menin MLL FP FL = 1.9

> COC(=O)C1=C(C)N(Cc2ccccc2)[C@]23O[C@](C(=O)OC)(C(=O)N2C1c1ccccc1)C1CCCC(=O)C13 (stereo not given in full)
  Menin MLL FP FL = -1.8&-8.8[11.7 µM]

> CC[C@H](C)[C@H](NC(=O)[C@H](Cc1ccc(O)cc1)NC(=O)[C@@H](NC(=O)[C@H](CCCN=C(N)N)NC(=O)[C@@H](N)CC(=O)O)C(C)C)C(=O)N[C@@H](Cc1cnc[nH]1)C(=O)N1CCC[C@H]1C(=O)N[C@@H](Cc1ccccc1)C(=O)O
  Menin MLL FP FL = -8.3

> c1ccc2c(N3CCNCC3)nc(-c3ccc4c(c3)OCO4)nc2c1
  Menin MLL FP FL = 3.0

> CCCCC/C=C\C/C=C\C/C=C\CCCCCCC(=O)O
  Menin MLL FP FL = 1.1

> C[C@H](NC(=O)[C@@H](Cc1c[nH]c2ccccc12)NC(=O)[C@@H](N)Cc1cnc[nH]1)C(=O)N[C@@H](Cc1c[nH]c2ccccc12)C(=O)N[C@H](Cc1ccccc1)C(=O)N[C@@H](CCCCN)C(N)=O
  Menin MLL FP FL = 1.5

> CCCCCCCCCCCCCC/C(C(=O)O)=C(\C)C(=O)O
  Menin MLL FP FL = -1.6

> CC1OC(n2cc(F)c(=O)[nH]c2=O)C(O)C1O (stereo not given)
  Menin MLL FP FL = 1.1

> COc1ccc(-c2noc(-c3cc(Cl)ccc3Cl)n2)cc1OC
  Menin MLL FP FL = -0.2

> CN(C)c1ncc2nc(CCc3ccccc3)c(=O)n(Cc3cccs3)c2n1
  Menin MLL FP FL = 16

> CC1CC(C)CN(C2CCN(Cc3cccnc3)CC2)C1 (stereo not given)
  Menin MLL FP FL = 0.0

> C=C1C2CC[C@@]3(C)C(c4ccoc4)OC(=O)C[C@@]13OC1CC(=O)C(C)(C)C(CC(=O)OC)[C@]12C (stereo not given in full)
  Menin MLL FP FL = -0.4

> Cc1nnc(NC(=O)CCC(=O)N2CCN(CCc3ccccc3)CC2)s1
  Menin MLL FP FL = -1.6

> O=C(c1ccco1)N1CCC2(CC1)CN(c1ncccn1)C2
  Menin MLL FP FL = -8.3

> CCCC(=O)NCCc1c2n(c3ccc(OC)cc13)CCCc1ccccc1-2
  Menin MLL FP FL = 1.8

> Cc1cc(C)c(S(=O)(=O)N2CCN(CCN3C(=O)c4cccc5cccc(c45)C3=O)CC2)cc1[N+](=O)[O-]
  Menin MLL FP FL = 5.3

> NC[C@@H]1O[C@H](O[C@H]2[C@@H](O)[C@H](O[C@@H]3[C@@H](O)[C@H](N)C[C@H](N)[C@H]3O[C@H]3O[C@H](CO)[C@@H](O)[C@H](O)[C@H]3N)O[C@@H]2CO)[C@H](N)[C@@H](O)[C@@H]1O
  Menin MLL FP FL = -5.2

> CCOc1cccc(C2c3c(oc4ccccc4c3=O)C(=O)N2c2ccccn2)c1 (stereo not given)
  Menin MLL FP FL = 4.5

> COc1cccc(/C=C2\SC(=S)N(NS(=O)(=O)c3ccc(C)cc3)C2=O)c1OC
  Menin MLL FP FL = -0.2

> COC(=O)C(/C=C/C(C)Cc1cc(Br)cc(OCc2ccccc2)c1OC)OCc1ccccc1 (stereo not given)
  Menin MLL FP FL = -2.2[11.7 µM]

> CN1CCN(c2ncnc3ccc(-c4ccccc4C(F)(F)F)cc23)CC1
  Menin MLL FP FL = -7.2

> CCOC(=O)CCN1C(=O)[C@H]2[C@H]3[C@H](O)[C@H](O)C/C(=N/OC/C=C(\C)CCC=C(C)C)[C@@H]3CC[C@@H]2C1=O
  Menin MLL FP FL = 1.5[11.7 µM]

Reformatted: results already given.
| mol | Menin MLL FP FL |
| --- | --- |
| COC(=O)C1=C(C)N(Cc2ccccc2)[C@]23O[C@](C(=O)OC)(C(=O)N2C1c1ccccc1)C1CCCC(=O)C13 (stereo not given in full) | -1.8&-8.8[11.7 µM] |
| CC[C@H](C)[C@H](NC(=O)[C@H](Cc1ccc(O)cc1)NC(=O)[C@@H](NC(=O)[C@H](CCCN=C(N)N)NC(=O)[C@@H](N)CC(=O)O)C(C)C)C(=O)N[C@@H](Cc1cnc[nH]1)C(=O)N1CCC[C@H]1C(=O)N[C@@H](Cc1ccccc1)C(=O)O | -8.3 |
| c1ccc2c(N3CCNCC3)nc(-c3ccc4c(c3)OCO4)nc2c1 | 3.0 |
| CCCCC/C=C\C/C=C\C/C=C\CCCCCCC(=O)O | 1.1 |
| C[C@H](NC(=O)[C@@H](Cc1c[nH]c2ccccc12)NC(=O)[C@@H](N)Cc1cnc[nH]1)C(=O)N[C@@H](Cc1c[nH]c2ccccc12)C(=O)N[C@H](Cc1ccccc1)C(=O)N[C@@H](CCCCN)C(N)=O | 1.5 |
| CCCCCCCCCCCCCC/C(C(=O)O)=C(\C)C(=O)O | -1.6 |
| CC1OC(n2cc(F)c(=O)[nH]c2=O)C(O)C1O (stereo not given) | 1.1 |

The results go on:
> COC(=O)c1c(NC(=O)CN2CCC(C)CC2)c2c(C)cccc2n1C
  Menin MLL FP FL = -1.9

> COC(=O)c1ccc(C2c3c(oc4cc(C)c(C)cc4c3=O)C(=O)N2CCCN(C)C)cc1 (stereo not given)
  Menin MLL FP FL = ?

> COc1ccc(Oc2ncc3nc(C)c(=O)n(C)c3n2)cc1
  Menin MLL FP FL = -0.8

> Cc1ccc(NC(=O)Cc2ccccc2)c(C)c1
  Menin MLL FP FL = -2.7

> CC1(C)N=C(N)N=C(N)N1c1ccc(C(=O)O)cc1
  Menin MLL FP FL = 0.2

> C#CCOCCOCCOCCNc1nc(N2CCN(C(=O)C(Cc3ccc(O)cc3)n3cc(C(N)CC(C)C)nn3)CC2)nc(N2CCN(C(=O)C(Cc3cc4ccccc4[nH]3)n3cc(C(N)Cc4ccc(O)cc4)nn3)CC2)n1 (stereo not given)
  Menin MLL FP FL = 20

> COc1ccc(NC(=O)N2CC3(CCN(C(=O)c4ccncc4)CC3)C2)cc1
  Menin MLL FP FL = -3.8

> N#CCCn1c(=O)c(-c2ccc(Cl)cc2)nc2cnc(Oc3ccccc3)nc21
  Menin MLL FP FL = 2.9

> C=CCOC(=O)N[C@@H](c1ccc(Br)cc1)C(C(C)=O)C(C)=O
  Menin MLL FP FL = 2.9

> CC(=O)OCC(=O)[C@@]1(O)CCC2C3CCC4=CC(=O)CC[C@]4(C)C3C(O)C[C@]21C (stereo not given in full)
  Menin MLL FP FL = -0.2

> Cc1cccc(C2=N[C@@H](Cc3ccccc3)CO2)c1
  Menin MLL FP FL = -3.3[94.6 µM]

> CCN(CC)CCNC(=O)C(=O)NCC1OCCN1C(=O)c1ccc2c(c1)OCO2 (stereo not given)
  Menin MLL FP FL = 0.0

> O=C1c2cccc3c2[C@@H](CCC3)CN1[C@@H]1CN2CCC1CC2
  Menin MLL FP FL = 3.0

> CC(C)=CCC/C(C)=C/CCC(C)NCCN1CCNCC1 (stereo not given)
  Menin MLL FP FL = 2.6

> COC(=O)c1c(C)c2c(c(C)c1O)OC(=O)c1c(C)c(Cl)c(O)c(Cl)c1O2
  Menin MLL FP FL = -2.0&-2.5

> CCC(C)C(NC(=O)C(Cc1ccc(O)cc1)NC(=O)C(N)C(C)C)C(=O)NC(Cc1cnc[nH]1)C(=O)N1CCCC1C(=O)NC(Cc1ccccc1)C(=O)O (stereo not given)
  Menin MLL FP FL = -0.1

> CCCN1C(=O)S/C(=C\c2ccc(N3CCOCC3)cc2C)C1=O
  Menin MLL FP FL = ?

> CO[C@H]1COC(=O)C/C=C\[C@H](C)[C@@H](OC)COC(=O)[C@@H](C)NC(=O)C/C=C\[C@@H]1C
  Menin MLL FP FL = -1.9[11.7 µM]

> O=C(O)C1CCNCC1
  Menin MLL FP FL = 0.6

> CN(C)CCCNc1c2c(c(C#N)c3nc4ccccc4n13)CCC2
  Menin MLL FP FL = ?

> O=P1(O)Oc2c(c(-c3ccccc3)cc3ccc4ccccc4c23)-c2c(-c3ccccc3)cc3ccc4ccccc4c3c2O1
  Menin MLL FP FL = 1.1

> C[C@@]12CCC(=O)C=C1C=CC1C2CC[C@]2(C)C1CC[C@@]21CCC(=O)O1 (stereo not given in full)
  Menin MLL FP FL = ?

> Clc1ccc([C@H](Cn2ccnc2)OCc2c(Cl)cccc2Cl)c(Cl)c1
  Menin MLL FP FL = -5.5[24.8 µM]

> O=c1c(-c2ccc(Cl)cc2)nc2cnc(Nc3ccccc3)nc2n1C[C@H]1CCCO1
  Menin MLL FP FL = ?

> c1ccc(-c2nc(-c3ccccc3)c(Nc3ccc4ccccc4c3)o2)cc1
  Menin MLL FP FL = -9.2

> CN(Cc1ccco1)c1ncncc1-c1ccoc1
  Menin MLL FP FL = ?

> CCC(C)C(N)C(=O)NC(CC(N)=O)C(=O)NC(CC(C)C)C(=O)NC(CCCCN)C(=O)NC(C)C(=O)NC(CC(C)C)C(=O)NC(C)C(=O)NC(C)C(=O)NC(CC(C)C)C(=O)NC(C)C(=O)NC(CCCCN)C(=O)NC(CCCCN)C(=O)NC(C(=O)NC(CC(C)C)C(N)=O)C(C)CC (stereo not given)
  Menin MLL FP FL = 4.8

> O=c1c2cc(N3CCOCC3)ccc2[nH]c(=S)n1CCCN1CCN(c2ccccc2F)CC1
  Menin MLL FP FL = 4.2

> Cc1cnc(CNc2ncnc3ccc(-c4ccc(N(C)C)cc4)cc23)cn1
  Menin MLL FP FL = ?

> Cc1ccc(C(=O)O[C@H](C(=O)O)[C@@H](OC(=O)c2ccc(C)cc2)C(=O)O)cc1 (tested in a mixture with another compound)
  Menin MLL FP FL = 1.2

> CCCCCCCCCCCCCC[C@@H](O)[C@@H](O)[C@H](CO)NC(C)=O
  Menin MLL FP FL = -1.6

> COc1ccc2c(c1)OC/C(=C\c1ccc(OC)c(O)c1)C2=O
  Menin MLL FP FL = 19

> O=C(OCC(F)(F)F)[C@H](O)[C@@H](O)C(=O)OCC(F)(F)F
  Menin MLL FP FL = 0.2

> CCn1ncc(Cl)c1C(=O)Nc1ccc2c(c1)CCC2
  Menin MLL FP FL = 3.5

> O=c1cc(N2CCOCC2)oc2c1ccc1ccccc12
  Menin MLL FP FL = 2.0

> Cc1cc(C)c(S(=O)(=O)c2ccccc2Cl)c(Cl)n1
  Menin MLL FP FL = -2.3

> C[C@@]12C=CC(=O)C=C1CC[C@@H]1[C@@H]2[C@H](O)C[C@]2(C)[C@@H]1CC[C@]2(O)C(=O)CO
  Menin MLL FP FL = -0.9[24.8 µM]

> O=C(O)[C@@H]1CCCNC1
  Menin MLL FP FL = 2.3[24.8 µM]

> O=c1oc2c(CN3CCCCCC3)c(O)ccc2cc1-c1nc2ccccc2[nH]1
  Menin MLL FP FL = ?

> COc1cc2c(cc1OC)-c1cc3cc(OC)c(OC)cc3c(=O)n1CC2
  Menin MLL FP FL = -0.8

> CCC(=O)OCC(=O)C1(OC(=O)CC)C(C)CC2C3C(Cl)CC4=CC(=O)C=C[C@@]4(C)C3C(O)C[C@@]21C (stereo not given in full)
  Menin MLL FP FL = 2.6

> O=S(=O)(c1ccccc1)N1CCC2(CCN(c3ccc(-c4ccccc4)cc3)CC2)CC1
  Menin MLL FP FL = -1.0

> CN(C)C(=O)NC(O)C(Cl)Cl (stereo not given)
  Menin MLL FP FL = 2.6

Reprinted at random: two records from the list, in no set order.
> O=c1cc(N2CCOCC2)oc2c1ccc1ccccc12
  Menin MLL FP FL = 2.0

> CCC(C)C(N)C(=O)NC(CC(N)=O)C(=O)NC(CC(C)C)C(=O)NC(CCCCN)C(=O)NC(C)C(=O)NC(CC(C)C)C(=O)NC(C)C(=O)NC(C)C(=O)NC(CC(C)C)C(=O)NC(C)C(=O)NC(CCCCN)C(=O)NC(CCCCN)C(=O)NC(C(=O)NC(CC(C)C)C(N)=O)C(C)CC (stereo not given)
  Menin MLL FP FL = 4.8
